# Screening results: PubChem BioAssay, National Center for Advancing Translational Sciences (NCATS)
# RE007 growth inh: qHTS Assay for Inhibitors of the HIV-1 protein Vpr. S. pombe RE007 Vpr strain, BacTiter-Glo ATP luminescence, 24 h; control for the full effect not named in the record. actives 0.21% (n = 360,000). Potency, µM (series often up to 92.2 µM), for inactives: top-dose activity change, negative = less growth. AID 651644, 2012; active = well fitted falling curve with a large enough effect; inconclusive = small, poorly fitted or top-dose-only effect; inactive = no such curve, though single readings can be large or run the other way;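 further: on the % scale 0 is the no-effect control and ±100 the full control effect; nearly all actives have a fitted effect of over 50% in size; the assay follows cell death caused by Vpr and the record does not say whether a fall means rescue or toxicity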
#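 Fission yeast RE007 carrying one integrated HIV-1 vpr copy, seeded at OD 0.01 in PMG+AL medium with 23 nL pinned compound. Grown 24 h at 30 degrees; viability read by BacTiter-Glo luminescence after 5 min.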
# Marburg entry inh: qHTS for inhibitors of binding or entry into cells for Marburg Virus. Marburg virus pseudotyped entry inhibition, cell reporter; control for the full effect not named in the record; about a third of the inactives were read at about 46 µM. Potency, µM (series often up to 37.8 µM), without a hit: at the highest dose activity change, negative = inhibition, actives largely listed as inhibitors. actives 1.8% (n = 300,000). AID 540276, 2011; active = well fitted inhibition curve with a large enough effect; inconclusive = small, poorly fitted or top-dose-only effect, or effect the other way; inactive = flat fitted curve, though single readings scatter; tested in HEK293 cells; about a fifth of its hits are not listed in these tables; further: on the % scale 0 is the no-effect control and ±100 the full control effect; luciferase read-out
# LASV entry inh: qHTS for Inhibitors of binding or entry into cells for Lassa Virus; actives 1.2% (n = 300,000); Lassa virus pseudotype entry inhibition, cell reporter; control for the full effect not named in the record; Potency, µM (titrated, usually from 37.9 µM), for the others: at the highest dose activity change, negative = inhibition, usual class: inhibitors; AID 540256, 2011; active means well fitted inhibition curve with a large enough effect; inconclusive means small, poorly fitted or top-dose-only effect, or effect the other way; inactive means flat fitted curve, though single readings scatter; tested in HEK293 cells; further: on the % scale 0 is the no-effect control and ±100 the full control effect; nearly all actives have a fitted effect of over 50% in size; luciferase read-out
# NS1 function inh: qHTS Assay for Inhibitors of Influenza NS1 Protein Function | AID 2326, 2010 | S. cerevisiae slowed by influenza A NS1, growth recovery by OD600 | Potency, µM (highest dose often 46.1 µM), inactives show at the top dose activity, positive = more growth | actives 0.4% (n = 270,000); further: actives are rising curves; nearly all actives have a fitted effect of over 50% in size
#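 Compounds were scored for reversing the slow growth caused by influenza A NS1 in S. cerevisiae, measured by optical density at 600 nm. Assay medium contained 2% galactose at pH 6.0; NS1-free yeast of the same strain were the positive control.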
# Cruzain inh Det: qHTS Assay for Promiscuous and Specific Inhibitors of Cruzain (with detergent). actives 0.43% (n = 200,000). Potency, µM, for inactives: max response, negative = inhibition, usual class: inhibitors. purified cruzain, Z-FR-AMC fluorescence, 0.01% Triton. AID 1478, 2009. Cruzipain (Trypanosoma cruzi), P25779; active means well fitted curve in the direction sought with a large enough effect; inconclusive means small, poorly fitted or top-dose-only effect, or another doubt; inactive means no such curve, though single readings can be large; an effect the other way counts as inactive or inconclusive;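 further: plate controls were neutral wells for no effect and buffer without enzyme for full effect; nearly all actives have a fitted effect of over 40% in size; top concentration of the series not given in the record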
# Target sequence (P25779 123-467 limits assumed): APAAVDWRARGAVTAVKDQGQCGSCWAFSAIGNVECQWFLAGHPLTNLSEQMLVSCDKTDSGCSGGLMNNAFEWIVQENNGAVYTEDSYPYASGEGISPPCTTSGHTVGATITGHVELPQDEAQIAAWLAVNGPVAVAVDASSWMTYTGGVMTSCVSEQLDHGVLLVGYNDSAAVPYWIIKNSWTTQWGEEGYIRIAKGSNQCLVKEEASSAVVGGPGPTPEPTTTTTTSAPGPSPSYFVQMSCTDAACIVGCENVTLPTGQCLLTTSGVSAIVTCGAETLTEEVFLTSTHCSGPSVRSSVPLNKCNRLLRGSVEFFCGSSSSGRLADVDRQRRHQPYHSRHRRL
#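 Z-FR-AMC hydrolysis (2 uM substrate) by cruzain (1.5 nM) monitored kinetically at ex 360/em 450 nm after 15 min room-temperature compound exposure; 0.01% Triton X-100, pH 5.5, 5 mM DTT.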
# Cruzain noTriton: qHTS Assay for Promiscuous and Specific Inhibitors of Cruzain (without detergent). purified cruzain, Z-FR-AMC fluorescence, no detergent. Potency, µM, for inactives: max response, negative = inhibition, actives largely listed as inhibitors. Cruzipain (Trypanosoma cruzi), P25779. actives 2.3% (n = 200,000); active means well fitted curve in the direction sought with a large enough effect; inconclusive means small, poorly fitted or top-dose-only effect, or another doubt; inactive means no such curve, though single readings can be large; an effect the other way counts as inactive or inconclusive;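 further: plate controls were enzyme without inhibitor for no effect and buffer without enzyme for full effect; nearly all actives have a fitted effect of over 40% in size; top concentration of the series not given in the record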
#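 Purified cruzain at 1.5 nM, pre-incubated 15 min with compound at room temperature in 100 mM sodium acetate pH 5.5, 5 mM DTT, 0.00005% Triton X-100. Reaction started with 2 uM Z-FR-AMC; AMC fluorescence increase over 60 s gives rate.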
# SARS PLpro yeast: qHTS of Yeast-based Assay for SARS-CoV PLP. S. cerevisiae expressing SARS-CoV PLpro, growth rescue; control for the full effect not named in the record. Potency, µM (titrated, usually from 32.9 µM), for inactives: at the top dose activity, positive = growth rescue. actives 0.19% (n = 330,000). AID 485353, 2010; further: 0% is about no effect; nearly all actives have a fitted effect of over 55% in size; growth read by luminescence after 48 h
# 2A StopGo: High Throughput Screening for Foot and Mouth Disease Virus Antivirals | human cells with a luciferase reporter of 2A StopGo recoding; control for the full effect not named in the record | Potency, µM (doses to about 57.9 µM), inactives show top-dose signal change, negative = less light | AID 1159524, 2015 | actives 1.2% (n = 410,000); active = well fitted falling curve with a large enough effect; inconclusive = small, poorly fitted or top-dose-only effect; inactive = no such curve, though single readings can be large or run the other way; tested in HEK293T cells; further: on the % scale 0 is the no-effect control and ±100 the full control effect; nearly all actives have a fitted effect of over 45% in size; luciferase light after 4 h
# * = called active by the depositor; ? = inconclusive; nt = no result given; & = joins results of further samples; [ ] = remark or other dose. Unless noted, the call rests on the fitted dose curve; in most records, active means well fitted rising curve with a large enough effect; inconclusive means small, poorly fitted or top-dose-only effect; inactive means no such curve, though single readings can be large or run the other way. Potency means the concentration at half of the fitted maximal effect.
SMILES,RE007 growth inh,Marburg entry inh,LASV entry inh,NS1 function inh,Cruzain inh Det,Cruzain noTriton,SARS PLpro yeast,2A StopGo
COc1ccc(-n2c(C)c(C(=O)O)c3cc(OC)c4ccccc4c32)cc1,6%,0%,?,3%,nt,nt,-1%,-4%
CN1CC(C(=O)c2ccc(F)cc2)C(c2c(F)cccc2Cl)C1 (stereo not drawn),2%,nt,nt,4%,nt,nt,2%,-14%
Cc1nn(C)c(C)c1CNC(=O)Nc1cccc(Cl)c1C,-2%,-6%,-19%,nt,nt,nt,-2%,23%
O=C(CN1CCN(S(=O)(=O)c2ccccc2C(F)(F)F)CC1)NCc1cccs1,5%,-4%[46.1 µM],-27%,nt,nt,nt,6%,-21%
CC(C)(C)NCC(O)CON=C1c2ccccc2-c2ccccc21 (stereo not drawn),4%,10µM*,nt,1%,nt,nt,0%,?
O=c1c2ccccc2nc2c3ccccc3ncn12,-10%,2%,?,-17%,-4.6%,-2%,2%,32%[activator]
CCn1c(=O)c2c(nc(SCC(=O)Nc3ccccc3)n2C)n(C)c1=O,-2%,9%[46.1 µM],3%,2%,nt,nt,1%,-18%
NC(=O)C1CCN(C(=O)COc2ccc3ccccc3c2)CC1,1%,14%,12%,5%,-1.2%,-15%,-4%,35%[activator]
CCOC(=O)C1Oc2ccccc2C(c2ccoc2)=C1C(=O)OC (stereo not drawn),-10%,nt,nt,nt,-2.9%,-2%,30%,-20%
CC1CCN(c2cc(=O)n(C3CCCCC3)c(=O)[nH]2)CC1,13%,nt,nt,6%,-8.4%,-3%,6%,24%
COc1cc2c(C(=O)OCCN(C)C)c(CSc3ccccc3)n(C)c2cc1Br,-10%,?,-3%,nt,nt,nt,8%,-24%
COc1cc(O)c(/C=N/NC(=O)c2ccncc2)c(OC)c1[N+](=O)[O-],4%,-24%,11%,nt,nt,nt,12%,-3%
CN(c1ccccc1)S(=O)(=O)c1ccc(NC(=S)Nc2ccccc2)cc1,-15%,-8%,19%,20%,0.7%,4%,4%,14%
Cc1ccc(OCC(=O)Nc2ccccc2F)cc1C,28%,-23%[46.1 µM],?,-7%,nt,nt,-1%,37%[activator]
O=C(CC(c1cccs1)N1Cc2ccccc2C1=O)Nc1ccc(Cl)cc1 (stereo not drawn),nt,nt,2%[46.1 µM],nt,-3.7%,2%,nt,11%
CCNc1ccc(Br)cc(C(=O)/C=C/c2ccc(Cl)cc2Cl)c1=O,-19%,?,?,-22%,-23%,-14%,-66%,?
COCCNC(=O)/C(C#N)=C/c1ccc(OCc2ccccc2)cc1,-4%,-23%[46.1 µM],-28%,0%,nt,nt,-1%,11%
O=C(NCCN1CCOCC1)C1CCN(S(=O)(=O)N2CCCCC2)CC1,4%,-1%,13%,-12%,-3.1%,-6%,-1%,nt
CC(=O)Nc1ccc(CN2CCc3c([nH]c4ccccc34)C2C(C)(C)C)cc1 (stereo not drawn),7%,nt,nt,8%,nt,nt,3%,-17%
COc1ccccc1NS(=O)(=O)c1cccc(C(=O)N/N=C/c2cn(-c3ccccc3)nc2-c2ccccc2)c1,-15%,?,-1%,?,-5.1%,13µM*,14%,15%
O=C(Nc1cccc(C(F)(F)F)c1)/C(=C\c1ccco1)NC(=O)c1cccs1,19%,?,0%,?,-10%,1%,-13%,-11%
O=C1C(Cl)=C(N2CCCC2)C(=O)N1c1ccccc1F,-18%,nt,nt,5%,nt,nt,2%,-3%
CCOC(=O)CSc1nnc(CSc2nc3ccccc3c(=O)[nH]2)n1-c1ccccc1,1%,15%,18%,-29%,-0.2%,1%,-1%,-23%
COc1cccc(CN(C)CC(=O)Nc2cccc(C(F)(F)F)c2)c1OC,-2%,-12%[46.1 µM],-20%,nt,nt,nt,0%,?
Cc1ccc(N(CC(=O)Nc2ccc(S(=O)(=O)N3CCOCC3)cc2)S(C)(=O)=O)cc1C,-15%,0%,-5%,5%,4.3%,28%,-5%,-9%

# Reprinted from the entries so far, 3 compounds:
SMILES,RE007 growth inh,Marburg entry inh,LASV entry inh,NS1 function inh,Cruzain inh Det,Cruzain noTriton,SARS PLpro yeast,2A StopGo
COc1ccc(-n2c(C)c(C(=O)O)c3cc(OC)c4ccccc4c32)cc1,6%,0%,?,3%,nt,nt,-1%,-4%
CN1CC(C(=O)c2ccc(F)cc2)C(c2c(F)cccc2Cl)C1 (stereo not drawn),2%,nt,nt,4%,nt,nt,2%,-14%
Cc1nn(C)c(C)c1CNC(=O)Nc1cccc(Cl)c1C,-2%,-6%,-19%,nt,nt,nt,-2%,23%

# Whole records, quoted from the list. Screens in order: RE007 growth inh, Marburg entry inh, LASV entry inh, NS1 function inh, Cruzain inh Det, Cruzain noTriton, SARS PLpro yeast, 2A StopGo
# `CCNc1ccc(Br)cc(C(=O)/C=C/c2ccc(Cl)cc2Cl)c1=O` reads -19%, ?, ?, -22%, -23%, -14%, -66%, ?
# `Cc1nn(C)c(C)c1CNC(=O)Nc1cccc(Cl)c1C` reads -2%, -6%, -19%, nt, nt, nt, -2%, 23%

# Returning to the listing; the two compounds before the break are reprinted first.
SMILES,RE007 growth inh,Marburg entry inh,LASV entry inh,NS1 function inh,Cruzain inh Det,Cruzain noTriton,SARS PLpro yeast,2A StopGo
COc1cccc(CN(C)CC(=O)Nc2cccc(C(F)(F)F)c2)c1OC,-2%,-12%[46.1 µM],-20%,nt,nt,nt,0%,?
Cc1ccc(N(CC(=O)Nc2ccc(S(=O)(=O)N3CCOCC3)cc2)S(C)(=O)=O)cc1C,-15%,0%,-5%,5%,4.3%,28%,-5%,-9%
CCOC(=O)c1[nH]c(C)c(C(=O)NC2CCCCCC2)c1C,7%,17%,0%,-9%,1.3%,-1%,10%,-1%
CCS(=O)(=O)Nc1c(C)n(C)n(-c2ccccc2)c1=O,6%,9%,0%,-8%,8.4%,8%,-2%,nt
O=C(NCc1cn2ccsc2n1)c1cccc(C(F)(F)F)c1,12%,11%,5%,2%,-2.3%,-28%,3%,7%
C#CCOCCOCCOCCNc1nc(N2CCN(C(=O)Cn3cc(CC(C)O)nn3)CC2)nc(N2CCN(C(=O)[C@H](CCCCN)n3cc(CCC(=O)O)nn3)CC2)n1 (stereo partly drawn),-6%,4%,5%,15%,1.4%,20%,-6%,-4%
CCc1ccc2nc(-c3cccc(C)c3)nc(SCC(=O)NCC3CCCO3)c2c1 (stereo not drawn),-11%,-12%,-6%,-5%,0.5%,-1%,-3%,-17%
Cc1[nH]n(-c2ccc([N+](=O)[O-])cc2)c(=O)c1C=NCCN1CCN(C(=O)c2cccc(F)c2)CC1,8.9µM*,29%,6%,6%,-11%,?,-33%,-12%
CCOC(=O)c1ccc(NS(=O)(=O)c2ccc3oc(=O)[nH]c3c2)cc1,-2%,8%[46.1 µM],6%[46.1 µM],21%,nt,nt,5%,3%
CCOc1ccc(CCNC(=O)CSc2cc(=O)n(C)c3ccc(Cl)cc23)cc1OCC,-8%,-1%[46.1 µM],-2%[46.1 µM],6%,6.3%&-1.5%,-4%&28%,5%,1%&-18%
C=CCOc1ccc(Br)cc1CNCCO,-2%,-18%[46.1 µM],1%,-1%,nt,nt,0%,-24%
COc1ccc(Cl)c(Cn2c(NCCCO)nc3c2c(=O)n(C)c(=O)n3C)c1,4%,7%,7%,-10%,-2.5%,9%,3%,-3%
N#Cc1ccsc1NC(=O)COC(=O)c1cc(Br)ccc1O,-5%,17%,4%,3%,nt,nt,-2%,28%
CCNc1nc(NCC)nc(N/N=C/c2ccc(N(C)C)cc2)n1,0%,?,-11%,nt,nt,nt,0%,-26%
CCCCC#Cc1ccc(C(=O)NNC(=O)Nc2ccccc2)o1,5%,-1%,3%,-1%,nt,nt,1%,2%
CCN(CC)CCCNC(=O)c1c(C)oc2ncnc(N3CCOCC3)c12,nt,nt,-2%[46.1 µM],nt,-0.3%,-2%,nt,-9%
CCc1cccc(CC)c1NC(=O)CN(C)S(=O)(=O)c1ccc2c(c1)n(C)c(=O)c(=O)n2C,nt,-20%[46.1 µM],14%[46.1 µM],nt,-0.9%,-6%,nt,-20%
Cc1cc(C)cc(NC(=O)CCc2nc3ccccc3[nH]2)c1,17%,20%,14%,10%,3.9%,-9%,-2%,8%
Fc1ccc(-c2cc3nc(-c4ccccc4)cc(N4CCOCC4)n3n2)cc1,-8%,?,8%,1%,?,-7%,-2%,18%
Cc1ccc(CNC(=O)Cn2nnc(C(=O)Nc3cccc(C)c3C)c2N)cc1,-4%,-8%[46.1 µM],nt,-3%,nt,nt,3%,8%
COc1cc(C=O)ccc1OCC(=O)Nc1ccccc1N1CCOCC1,16%,11%,9%,-9%,nt,nt,-2%,-19%
CN(Cc1nccn1C)C(=O)CC1C(=O)NCCN1Cc1ccccc1C(F)(F)F (stereo not drawn),2%,1%[46.1 µM],8%[46.1 µM],-2%,nt,nt,3%,-4%
O=C(CCCc1ccccc1)NCCc1ccccc1,3%,nt,nt,-10%,nt,nt,-4%,72%[activator]
CCOc1ccc2[nH]c(=O)c(CN(Cc3ccco3)Cc3nnnn3Cc3ccccc3)cc2c1,11%,0%&-31%,-13%,-22%,-7.4%,17%,-4%,-23%
CN1C(=O)NC2(O)C(=O)c3ccccc3C12O (stereo not drawn),-24%,9%,9%,-2%,0.9%,20%,-11%,0%
CCc1nnc(SCc2c(F)cccc2Cl)c2cc3sccc3n12,nt,nt,-14%[46.1 µM],nt,-0.7%,3%,nt,11%
CCN1CCN(C(=O)C(C)N(c2ccc(C)cc2)S(C)(=O)=O)CC1 (stereo not drawn),-3%,9%[46.1 µM],4%,-14%,1.4%,11%,3%,7%
